HCMV NEC inh: disrupts HCMV UL50-UL53 complex binding; HTRF UL50-UL53 interaction, normalized percent inhibition; inhibition, % (concentration not given with the values); actives 0.15% (n = 190,000);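 active means both replicates at 50% or more, plus weaker picks with an unusually low signal ratio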;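 further: stock transfer was 100 nL into about 20 µL; 0% = negative control wells and 100% = wells with untagged competitor protein; inactives centre near -12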
GIV-Gai inh: GIV-Galpha-i interaction inhibition; P08753; Galpha-i3/FITC-GIV peptide fluorescence polarization, 90 min; stronger effect = lower value; scaled: aluminum fluoride 0%, vehicle 100%; percent of control (FP), % (concentration not given with the values); actives 0.42% (n = 210,000); AID 1224905;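 active means replicate mean at 85% of control or lower, very high polarization wells dropped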;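 further: wells of about 15 µL received 100 nL stock; the first replicate is given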
Target sequence (P08753 whole entry, looked up): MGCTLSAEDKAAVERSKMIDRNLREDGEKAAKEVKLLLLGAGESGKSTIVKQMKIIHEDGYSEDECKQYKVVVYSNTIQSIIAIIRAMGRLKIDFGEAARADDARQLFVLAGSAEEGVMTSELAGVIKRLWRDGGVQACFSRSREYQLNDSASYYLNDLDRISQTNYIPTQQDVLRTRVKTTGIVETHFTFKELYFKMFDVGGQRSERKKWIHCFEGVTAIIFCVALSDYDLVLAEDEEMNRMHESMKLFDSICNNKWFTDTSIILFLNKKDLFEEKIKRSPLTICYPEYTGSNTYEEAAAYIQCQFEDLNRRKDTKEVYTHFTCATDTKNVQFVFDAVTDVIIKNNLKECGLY
Sa growth 42C: S. aureus growth inhibition; S. aureus RN4220 growth, OD600, 20 h, 42 °C; stronger effect = lower value; relative growth, % (test concentration not listed); actives 0.53% (n = 170,000);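 active means growth at 42 °C up to 50% and 20 or more points under that at 30 °C, or under 10% at both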;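 further: 300 nL library stock went into each well; scaled to the means of positive and negative controls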
Sa growth 42C second temp: also measured in Sa growth 42C; calls as there; relative growth, %; measured here: growth at 30 °C;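 optical density after 20 h as mean of two plates; 100% = untreated growth and lower means inhibition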
Active calls of the source: *; · = no result given; & = joins results of further samples. Not a hit list; overall some 0.82% were active at least once.

SMILES,GIV-Gai inh,HCMV NEC inh,Sa growth 42C,Sa growth 42C second temp
CC(=O)N(C)C1(c2nnnn2CCOC(=O)Nc2ccc(Cl)cc2)CCCCC1,106,-7,81,82
O=C1C=C(NCc2ccccc2)CCC1,·,-27,115,83
C=CCN(Cc1nc(-c2ccc(C)cc2)no1)C(=O)Nc1cccc(C)c1,97,-19,·,·
Cc1c(C(=O)Nc2cccc(C(F)(F)F)c2)sc2nc[nH]c(=O)c12,99,·,97,92
CCc1nnc(NC(=O)c2sc(-c3cccc(Cl)c3)nc2C)s1,·,-1,57,73
CSc1nnc(-c2ccccc2)n1/N=C/c1cn[nH]c1-c1ccccc1,109,13,78,67
CN(CCCNC(=O)c1cc2c(Cl)nc3ccccc3c2s1)Cc1ccccc1,105,-33,114,52
O=c1c2cnn(-c3ccccc3)c2nc(-c2ccco2)n1-c1ccccc1,103,-14,104,90
CCC(=O)N(C)c1nnc(-c2cccc(C)c2)s1,102,-8,100,74
CCC(=O)N1CCc2cc(Br)cc(S(=O)(=O)NCCN3CCN(c4ccccc4F)CC3)c21,101,-12,94,90
C=COCCn1c(-c2nonc2N)nc2ccccc21,117,-18,89,95
Cn1cnnc1SCC(=O)NC1=NCCS1,100,-31,·,·
Cc1cc(C(=O)NCCN2CCOCC2)c2c(=O)n(C)c(=O)n(C)c2n1,105,-12,·,·
O=C(O)Cc1ccc2c(c1)OCCCO2,100,13,90,80
CCN1CCN(c2ccc(N3CCCC(C(=O)N4CCN(c5cccc(Cl)c5)CC4)C3)nn2)CC1 (configuration not stated),105,-43,·,·
Oc1ccc2ccccc2c1C=NCc1cccnc1,5.4*,-8,72,32
CC1(C)Cc2ccccc2-c2nnc(-c3ccccc3)n21,102,3,105,85
O=C1NC(=NC2CCCC2)S/C1=C\c1ccc(Cl)cc1,·,-33,100,83
Cc1ccccc1-c1noc(N2CCC(C(=O)N3CCCCC3)CC2)n1,101,-18,·,·
COCCNC(=S)N1CCC(NC(=O)NC23CC4CC(CC(C4)C2)C3)CC1,99,-15,93,81

The results go on:
SMILES,GIV-Gai inh,HCMV NEC inh,Sa growth 42C,Sa growth 42C second temp
Cc1ccc(-c2n[nH]c3c2C(c2cccs2)N(c2ccc(Cl)cc2)C3=O)cc1 (configuration not stated),108,-4,110,75
O=C(Cc1ncon1)Nc1cc(Cl)cc(Cl)c1,107,·,118,93
CCOc1ccc(CCNC(=O)c2cc3n(n2)CCCN(Cc2ccc(C)cc2)C3=O)cc1OCC,105,·,102,104
CC(=O)Nc1ccc(S(=O)(=O)Nc2ccc([N+](=O)[O-])cc2)cc1,·,-101,77,72
CCCCCCc1nnc(NC(=O)CC)s1,102,-11,104,96
CC(=O)Nc1ccc(-c2nnc3n2CCCCC3)cc1,102,-3&-20,·,·
O=C(Nc1ccc2[nH]c(=O)oc2c1)c1ccc(F)cc1,100,-12,·,·
COc1ccc(C(=O)Nc2cc(-c3nc4ncccc4o3)ccc2C)cc1Br,110,-70,104,87
COCCN(CCOC)C(=O)c1cc2c(=O)n3ccccc3nc2n1C,100,-46,90,94
CNc1oc(-c2ccc(OC)cc2)nc1C#N,108,-18,103,89
CCOc1ccc2nc(SCc3ccc4c(c3)OCO4)sc2c1,·,-8,110,89
N#Cc1nc(Cc2ccccc2)oc1NCCc1ccccc1,103,-6,121,94
Cc1ccc(-n2c(=O)[nH]c3cc(C(=O)NCCc4ccccc4)ccc3c2=O)cc1,99,-8,92,85
CCN(CC)c1nc(-c2ccccc2F)nc2ccccc12,103,·,84,80
CCc1ccccc1NC(=O)N1CCN(Cc2nc3ccc(C)cc3o2)CC1,104,·,91,88
CC1(C)OC(=O)C(C2C3CC4CC(C3)CC2C4)C(=O)O1 (configuration not stated),105,32,93,99
CCOC(=O)C1=C(c2ccccc2)NC(=O)NC1c1cc(Br)c(O)c(OC)c1 (configuration not stated),103,-4,·,·
CCCS(=O)(=O)Nc1cccc(-c2cn3ccsc3n2)c1,106,·,123,106
Cc1nn(-c2ccccc2)c2sc(C(=O)OCC(=O)NC3CCCCCC3)cc12,·,-2,98,85
COCC(=O)N1CC(OCc2ccc(Cl)cc2)C1,103,-8,·,·

Next section, starting with the last 4 of the part before.
SMILES,GIV-Gai inh,HCMV NEC inh,Sa growth 42C,Sa growth 42C second temp
CCOC(=O)C1=C(c2ccccc2)NC(=O)NC1c1cc(Br)c(O)c(OC)c1 (configuration not stated),103,-4,·,·
CCCS(=O)(=O)Nc1cccc(-c2cn3ccsc3n2)c1,106,·,123,106
Cc1nn(-c2ccccc2)c2sc(C(=O)OCC(=O)NC3CCCCCC3)cc12,·,-2,98,85
COCC(=O)N1CC(OCc2ccc(Cl)cc2)C1,103,-8,·,·
Cc1cc(C)c2c3c(sc2n1)C(=O)N(Cc1ccccc1)CN3,104,-78,·,·
O=C(NCc1ccco1)c1ccc2c(c1)N(Cc1ccccc1)C(=O)c1ccccc1S2=O (configuration not stated),107,6,111,101
CCCN1CCN(CC(O)c2ccc3c(c2)CCN3C(C)=O)CC1 (configuration not stated),94,-31,·,·
O=C(O)CCC(=O)N1CCCCC1,102,102,106,106
N#Cc1ccc(NC(=O)CNCCN2CCOCC2)cc1,101,3,111,96
Cc1cccc2c1Oc1nc(-c3ccccc3)nc(SCC(=O)Nc3ccc4c(c3)OCCO4)c1C2,109,-10,·,·
C/C(=C/c1ccccc1)C(=O)N1CC(C)OC(C)C1 (configuration not stated),107,10,101,103
O=C(NCCC1=CCCCC1)c1cc2c(=O)[nH]c3ccccc3c2s1,119,·,90,96
O=C(c1ccco1)N1CCN(C2(c3ccccc3)C(=O)c3ccccc3C2=O)CC1,102,-24,96,87
CC(C)N(C(=O)CSc1nnc(Cc2cccc3ccccc23)n1N)C(C)C,·,4,103,96
Cc1ccc(CNC(=O)Cn2c(=O)n(-c3ccc(C)c(F)c3)c(=O)c3sc4ccccc4c32)cc1,100,9,92,98
Nc1c(-c2nc(-c3ccccc3)cs2)c2ccccn2c1C(=O)c1ccc2c(c1)OCO2,123,-2,102,87
COc1cccc(C2C(C(=O)Nc3ccc(Cl)cc3)=C(C)Nc3nc4ccccc4n32)c1OC (configuration not stated),105,12,101,102
COc1cccc(NC(=O)c2cc(-c3cccc(OC)c3)n[nH]2)c1,105,-2,101,95
O=C(CNCCc1ccc(Cl)cc1Cl)NCc1ccco1,·,4,88,92
O=S(=O)(Cc1ccccc1)NCc1ccccn1,99,-17,99,91
OC1(C(F)(F)F)CC(c2ccc3c(c2)CCO3)=NN1 (configuration not stated),111,-32,71,51
Cc1ccc2oc(-c3cccc(NC(=O)c4ccc(N5CCC(C)CC5)c([N+](=O)[O-])c4)c3)nc2c1,113,6,101,105
COc1ccc(NC(=O)Cc2cccc3ccccc23)cc1,102,·,93,86
Cc1c(C(N)=O)sc2ncn(Cc3ccccc3)c(=O)c12,102,-25,106,70

Carrying on.
SMILES,GIV-Gai inh,HCMV NEC inh,Sa growth 42C,Sa growth 42C second temp
c1ccc(-n2c(SCC3CCCO3)nnc2-c2cccs2)cc1 (configuration not stated),·,7,97,99
CCOC(=O)COc1ccc(=O)n(-c2ccccc2)n1,109,·,95,101
CN1CCC(N(C)C(=O)c2cc3c(s2)CCCC3)CC1,·,-35,98,89
CC(C)(C)OC(=O)N1CCC(c2nc(-c3ccc(Cl)s3)cs2)CC1,106,-30,100,90
N#Cc1c(NC(=O)CN2C(=O)C3CC=C(Cl)CC3C2=O)sc2c1CCCC2 (configuration not stated),107,-5,·,·
O=C(c1ccc(Cl)cc1)N1CCCCC(Sc2nnnn2Cc2cccs2)C1=O (configuration not stated),·,14,121,112
O=C(COc1ncnc2sccc12)NCC1CCCO1 (configuration not stated),·,-6,96,94
Cc1ccc(C(=O)OCc2ccc(C#N)cc2)s1,·,-28,106,86
C#CC(C)(CC)NC(=O)c1cnn2c(C(F)F)cc(-c3ccccc3OC)nc12 (configuration not stated),106,·,122,89
O=c1c(S(=O)(=O)c2ccccc2)cn(Cc2ccc(F)cc2)c2cc(N3CCOCC3)c(F)cc12,113,·,112,92
CCc1cc2c(=O)c(-c3nncn3-c3ccccc3)coc2cc1OCC(=O)O,·,6,103,98
CN1CCN(c2cc(C(=O)O)c3cc(NC(=O)c4ccc(Br)cc4)ccc3n2)CC1,112,-18,·,·
O=C(CN1C(=O)COc2ccc(C(=O)N3CCCC3)cc21)Nc1ccncc1,103,-27,·,·
COc1ccc(Cc2nn3c(CSc4ccccc4)nnc3s2)cc1,105,-9,·,·
CCCS(=O)(=O)c1nc(S(=O)(=O)c2ccc(C)cc2)c(NCc2ccccc2Cl)s1,105,8,111,101
O=C(COc1ccccc1)Nc1ccc2oc(-c3ccccc3F)nc2c1,105,-30,·,·
Cn1c(CNC(=O)OC(C)(C)C)nnc1SCc1ccccc1,105,-41,94,88
Cc1cc(C)n2nc(C(=O)OCC(=O)c3ccccc3)nc2n1,·,-3,98,85
CC(=O)c1ccc(N2CCN(S(=O)(=O)c3ccc4[nH]c5c(c4c3)CCCCC5)CC2)cc1,108,·,107,101
Cc1nc2nc(CN(c3ccccc3)S(=O)(=O)c3ccccc3)nn2c(C)c1Cl,106,-38,·,·

Additional structures follow.
SMILES,GIV-Gai inh,HCMV NEC inh,Sa growth 42C,Sa growth 42C second temp
COc1ccccc1-c1nn2c(-c3ccccn3)nnc2s1,109,7,·,·
Cc1cc(-c2nc(-c3ccccc3)no2)n[nH]1,112,-12,·,·
CCC(c1nnc(SCC(=O)N2CC(=O)Nc3ccccc32)o1)N(C)C (configuration not stated),·,-15,85,90
CCCCS(=O)(=O)c1oc(-c2ccc(F)cc2)nc1S(=O)(=O)c1ccccc1,109,11,1.6*,5.6*
COc1ccc(CNC(=O)CN(C)c2nnc(N3CCCC3=O)s2)cc1,99,15,·,·
CCC(C(=O)Nc1cccc(OC)c1)n1c(SCc2ccc(F)cc2)nc2cccnc21 (configuration not stated),97,-11,·,·
CCOc1ccc(/C=C/c2nc3ccccc3n2S(=O)(=O)c2ccc(Br)cc2)cc1,101,-27,110,83
Cc1ccc(N2C(=O)NC(=O)/C(=C\c3ccccc3)C2=O)cc1,105,·,95,85
Cc1ccc2c(=O)cc(C(=O)Nc3cccnc3)oc2c1C,102,-48,·,·
Cc1ccc(OCC(=O)Nn2cnc3ccccc32)cc1,·,-6,106,98
CN(C)CCNC(=O)C1CCN(c2ncnc3c2nc2n3CCCCC2)CC1,105,·,78,85
COc1ccccc1CNC(=O)CN1C(=O)CSc2ccc(S(=O)(=O)N(C)C)cc21,101,·,106,85
CCn1nnnc1SCC(=O)NC1CCCC1,100,1,104,75
CC1=C(C)CC(C(=O)Nc2ccc(-n3cnnn3)c(C)c2)C(C(=O)O)C1 (configuration not stated),101,·,101,80
Cc1ccc(C(=O)N/C(=C\c2ccc(Cl)cc2)C(=O)NC2CCCCC2)cc1,103,0,111,95
O=C(CSC1=NC(c2ccco2)CC(C(F)(F)F)N1)NCc1ccc(F)cc1 (configuration not stated),102,8,139,102
CCOc1cc(/C=C2\N=C(c3cccc(F)c3)OC2=O)cc(Br)c1OC(C)=O,114,-35,·,·
CCOc1ccc(-n2c(=O)c3c(C)c(C)sc3n(Cc3cc(=O)n4cc(Cl)ccc4n3)c2=O)cc1,102,-13,97,83
O=C(c1ccc2c(c1)OCCCO2)c1ccc2ccccc2c1,·,6,118,96
Cc1ccc(-c2nn(CCC(=O)Nc3ccc(OC(F)(F)F)cc3)c(=O)c3ccccc23)cc1,101,2,103,105

An excerpt from above in order of the Sa growth 42C second temp value, falling:
mol | Sa growth 42C second temp
Cc1ccc(OCC(=O)Nn2cnc3ccccc32)cc1 | 98
Cc1ccc(N2C(=O)NC(=O)/C(=C\c3ccccc3)C2=O)cc1 | 85
CC1=C(C)CC(C(=O)Nc2ccc(-n3cnnn3)c(C)c2)C(C(=O)O)C1 (configuration not stated) | 80

(more compounds)
SMILES,GIV-Gai inh,HCMV NEC inh,Sa growth 42C,Sa growth 42C second temp
O=C(CCC1N=C2c3ccccc3N=C(SCc3ccc(Cl)cc3)N2C1=O)NCCc1ccccc1 (configuration not stated),100,8,102,72
CCN(CC)c1ccc(-n2nc3cc(C)c(NC(C)=O)cc3n2)cc1,109,6,111,101
CC[C@]1(O)C[C@H]2CN(CCc3c([nH]c4ccccc34)[C@@](C(=O)OC)(c3cc4c(cc3OC)N(C)[C@H]3[C@@](O)(C(N)=O)[C@H](O)[C@]5(CC)C=CCN6CC[C@]43[C@@H]65)C2)C1,102,-32,87,79
Cc1ccc(-c2cn3c(n2)sc2cc(C(=O)NCCCc4ccccc4)ccc23)c(C)c1,109,·,111,115
COc1cc(C)c(S(=O)(=O)N2CCCC(C)C2)cc1C (configuration not stated),100,5,138,129
Cc1ccc(/C=C2\SC(=S)N(NC(=O)c3ccccc3F)C2=O)o1,·,-45,87,81
COc1ccc(C(=O)Nc2nc(-c3nnn(-c4ccc(C(C)C)cc4)c3C)ns2)cc1,101,·,119,106
CCOC(=O)c1c(NC(=O)CCCOc2ccc(C)cc2)sc2c1CCC(C)C2 (configuration not stated),101,9,88,93

Assay outcomes (PubChem)
